gsp ag: gsp mutant agonism; gsp mutant cells, cAMP HTRF, 30 min; control for the full effect not named in the record; Potency, µM (titrated, usually from 76.9 µM), for inactives: top-dose activation (cAMP increase), hits mostly activators; 340,000 tested, 0.13% active; active = well fitted activation curve with a large enough effect; inconclusive = small, poorly fitted or top-dose-only effect, or another doubt; inactive = no such curve, though single readings can be large or run the other way; cell line not stated here;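 note: phosphodiesterase inhibitor Ro 20-1724 added with compounds to block cAMP breakdown; potency is the fitted concentration of half-maximal effect; nearly all actives have a fitted effect of over 60% in size; about a fifth of the inactives were tested at one dose only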
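Cells stably selected in G418 were plated at 2000/well, grown 16-24 hr, then given compounds in DMSO with the PDE inhibitor […] (300 uM solution added) for 30 min at 37C; cAMP was read by HTRF.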
ClpP mod: qHTS Assay for Activators of ClpP; ATP-dependent Clp protease proteolytic subunit (Bacillus subtilis (strain 168)), P80244; purified B. subtilis ClpP, FRET peptide cleavage, 20 min; Potency, µM (doses to about 57.5 µM), without a hit: top-dose activity change, negative = active; 340,000 tested, 1.9% active; AID 651965, 2013; active = well fitted falling curve with a large enough effect; inconclusive = small, poorly fitted or top-dose-only effect; inactive = no such curve, though single readings can be large or run the other way; note: potency is the fitted concentration of half-maximal effect; the source files actives as falling curves though it sought activators and does not explain the sign; nearly all actives have a fitted effect of over 65% in size; many hits overshoot -100%
Target sequence (P80244 whole entry, looked up): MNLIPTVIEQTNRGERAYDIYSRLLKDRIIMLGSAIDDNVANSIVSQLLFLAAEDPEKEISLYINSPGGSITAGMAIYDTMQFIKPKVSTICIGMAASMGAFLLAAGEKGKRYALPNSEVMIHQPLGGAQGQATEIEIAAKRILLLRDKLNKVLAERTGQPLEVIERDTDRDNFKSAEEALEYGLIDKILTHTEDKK
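ClpP 10 microg/mL final, pH 8 Tris/KCl buffer with BSA, glycerol, Tween-20; compound pinned in; FRET-FV substrate; RT 20 min; Ex320/Em430; ΔFRET vs ADEP 5.8 microM, DMSO, no enzyme.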
TRPML1 blocker: blocks the human TRPML1 channel; Q9GZU1; TRPML1-inducible cells, Ca2+ dye fluorescence, FDSS; hits give low values; inhibition of EC80 agonist-evoked calcium signal; activity change, negative = inhibition, % (no concentration beside the values); 390,000 tested, 0.02% active; in the data active means activity change below about -50%; inconclusive means about -30% to -50%; inactive means above about -30%;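 note: stimulus is agonist 54-4 at its EC80 concentration; % is set by controls: 0 for no effect and ±100 for the full control effect; compound concentration not given in the record; the text of the record puts the active cut at -80%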
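Tet-induced TRPML1-DL cells loaded with Ca8 no-wash calcium dye were read kinetically on FDSS. Compound addition was followed by EC80 agonist 54-4 (4 uM final); inhibition was read over 110 s.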
TRPV1 PAM: human TRPV1 potentiation; Q8NER1; TRPV1-expressing cells, Fluo-8 calcium influx, capsaicin EC20 potentiation; host cell line not named in the record; control for the full effect not named in the record; potentiation, % at 8.33 µM; 320,000 tested, 0.02% active; active means potentiation above 80%; inconclusive means 30% to 80%; inactive means below 30%; note: 0% is about no effect
Target sequence (Q8NER1 whole entry, looked up): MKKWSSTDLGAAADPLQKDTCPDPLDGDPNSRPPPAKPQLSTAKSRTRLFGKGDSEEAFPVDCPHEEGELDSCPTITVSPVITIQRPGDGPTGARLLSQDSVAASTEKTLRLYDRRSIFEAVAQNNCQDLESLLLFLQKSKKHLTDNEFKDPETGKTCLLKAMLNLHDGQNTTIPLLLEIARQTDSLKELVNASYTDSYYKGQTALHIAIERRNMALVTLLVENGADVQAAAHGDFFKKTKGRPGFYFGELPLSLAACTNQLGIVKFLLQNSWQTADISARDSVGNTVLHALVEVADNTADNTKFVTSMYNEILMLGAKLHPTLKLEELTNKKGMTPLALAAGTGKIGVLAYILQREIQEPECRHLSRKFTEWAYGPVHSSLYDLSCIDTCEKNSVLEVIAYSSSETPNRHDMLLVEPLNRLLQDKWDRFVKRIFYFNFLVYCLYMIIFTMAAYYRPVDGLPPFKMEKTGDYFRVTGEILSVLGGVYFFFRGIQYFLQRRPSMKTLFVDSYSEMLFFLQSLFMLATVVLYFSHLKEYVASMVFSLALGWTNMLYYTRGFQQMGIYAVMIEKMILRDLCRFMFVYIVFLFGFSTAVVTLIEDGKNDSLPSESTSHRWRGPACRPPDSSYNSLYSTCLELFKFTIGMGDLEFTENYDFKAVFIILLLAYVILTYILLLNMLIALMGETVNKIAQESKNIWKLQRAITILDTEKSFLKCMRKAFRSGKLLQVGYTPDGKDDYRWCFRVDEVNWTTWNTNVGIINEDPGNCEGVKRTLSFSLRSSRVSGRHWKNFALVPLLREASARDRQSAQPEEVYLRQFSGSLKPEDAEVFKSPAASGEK
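TRPV1-expressing cells were cultured overnight at 35.5C and loaded with Fluo-8 calcium dye for 40 to 90 min at room temperature. After a 10 s baseline, compound was added and calcium influx was read kinetically for 3 min (ex 480/em 520 nm).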
gsp antagonist: antagonists of gsp mutant (McCune-Albright syndrome); 340,000 tested, 0.4% active; gsp-mutant cells, cAMP HTRF, 30 min; control for the full effect not named in the record; AID 624288; Potency, µM (top dose mostly 76.9 µM), for inactives: at the highest dose activity change, negative = inhibition, usual class: inhibitors; active = falling curve of any shape with a large fitted effect; inconclusive = falling curve, mostly with a smaller effect; inactive = flat or rising curve; cell line not stated here;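 note: intracellular cAMP measured with PDE inhibitor Ro 20-1724 present during compound exposure; potency is the fitted concentration of half-maximal effect; % is set by controls: 0 for no effect and ±100 for the full control effect; nearly all actives have a fitted effect of over 65% in size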
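Cells, 2000/well, grown 16–24 h in DMEM 10% FBS with 0.5 mg/ml G418, then compounds plus […] (300 uM addition stock), 30 min at 37C. cAMP read by HTRF (cAMP-d2 and anti-cAMP antibody-K in lysis buffer) after 30 min RT.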
Sfp PPTase inh: Sfp phosphopantetheinyl transferase inhibition; Biochemical Sfp PPTase activity, qHTS; Potency, µM, without a hit: max response, negative = inhibition, hits mostly inhibitors; 310,000 tested, 3.5% active; AID 1490; active = well fitted inhibition curve with a large enough effect; inconclusive = small, poorly fitted or top-dose-only effect, or another doubt; inactive = no such curve, though single readings can be large or run the other way;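 note: the enzyme is Sfp with the accession as filed and its product quenches rhodamine fluorescence; potency is the fitted concentration of half-maximal effect; 0% = enzyme reaction without inhibitor and -100% = no enzyme wells; top concentration of the series not given in the record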
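Buffer: 50 mM Hepes-Na pH 7.6, 10 mM MgCl2, 0.01% Nonidet P-40, 0.01% BSA. Enzyme 15 nM, pre-exposed to compound 15 min; substrates then added and fluorescence change tracked over 30 min.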
Menin-MLL FL inh: displaces fluorescein MLL peptide from human menin; FP activity change, % at 61.4 µM; Fluorescence polarization, fluorescein-MLL peptide displacement from menin; 290,000 tested, under 10 active; inconclusive = falling polarisation curve, or a change in total fluorescence; inactive = total fluorescence flat and polarisation flat or rising; no compound was filed as active; the % refers to the polarisation; negative = inhibition;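 note: % of control where 0% means no effect; inhibitors lower the polarisation; unlabelled MLL peptide was the positive control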
An asterisk follows results filed as active; ? = inconclusive; . = no result given; & = joins results of further samples; [ ] = dose if it differs, or a comment.

SMILES	gsp ag	ClpP mod	TRPML1 blocker	TRPV1 PAM	gsp antagonist	Sfp PPTase inh	Menin-MLL FL inh
COc1cc(C2c3c(oc4ccccc4c3=O)C(=O)N2c2nccs2)ccc1O (centres undefined)	-41%[15.4 µM]	.	11	-14	2%	1%	-0.2
CCOc1ccc(Cl)cc1/C=N/NC(=O)c1ccccc1	6%[15.4 µM]	-15%	4	9	-19%	-12%	-1.5
O=S(=O)(NCc1ccc2c(c1)OCO2)c1ccc(F)c(F)c1	-45%[inhibitor]	.	-6	-2	4%	12%	1.5
N#CCOC(=O)[C@H](Cc1ccccc1)N1C(=O)c2ccccc2C1=O	22%	0.5%	-11	-4	-15%	5%	-0.9
CCC(C)[C@H]1COCCS(=O)(=O)N1Cc1ccc(C)cc1 (some centres undefined)	.	-6.5%&0.5%	15	25	8%	13%	-0.7
O=C(Nc1ccc(-c2nc3cc(NC(=O)c4cccs4)ccc3o2)cc1)c1cccs1	-2%	?	1	.	-12%	12%	1.2
CC1=CC(C)(C)[N+](C)=CN1c1ccccc1	-1%[15.4 µM]	0.1%	27	-2	-3%	13%	-0.7
O=C(O)CN=CC1=C(O)CC(c2ccccc2)CC1=O (centres undefined)	3%	0.1%	4	-19	3%	23%	-5.2
C#CCOc1ccc(C2C3=C(CC(C)(C)CC3=O)N(CC(=O)O)C3=C2C(=O)CC(C)(C)C3)cc1OC	-17%	-8.4%	.	-1	5%	-14%	-1.0
CC(=O)C1(C)OC(N)=C(C#N)C(c2ccccc2)C1(C#N)C#N (centres undefined)	20%	4.3%	20	12	8%	-5%	?
Cc1ccc2nc(-c3ccc(O)c(O)c3)cn2c1	?	.	3	-5	-11%	56µM*	-6.8
O=C(CSc1nnc(NC(=O)C2CC2)s1)Nc1ccc(F)cc1F	1%	-0.5%	7	2	3%	3%	.
COc1ccc(OCC(O)CN2CCN(c3ccc(Cl)cc3)CC2)cc1 (centres undefined)	23%	-0.3%	13	24	11%	10%	0.0
N#CCCN(C(=O)CN1C(=O)NC2(CCCC2)C1=O)c1ccccc1F	-25%	-0.9%	-6	6	-4%	13%	4.6
COc1cccc(CN2CCNC(=O)C2CC(=O)NCCN2CCCCC2=O)c1 (centres undefined)	-7%	-8.5%	0	12	3%	10%	.
CCc1cccc(C)c1NC(=S)NCC(c1cccnc1)N1CCOCC1 (centres undefined)	-62%[inhibitor]	0.5%	-18	11	6%	-15%	1.1
C/C(=N\Nc1nc(-c2ccccc2)cs1)c1cccs1	-4%[15.4 µM]	-1.8%	0	5	3%	56µM*	3.0
Cc1cc(C(=O)NCc2ccc(S(N)(=O)=O)cc2)cs1	26%	-2.6%	-12	-2	10%	12%	-0.1
COc1ccc(NS(=O)(=O)c2ccc(O)c(C(=O)OCC(=O)N3CCCCC3)c2)cc1	-3%	-9.1%	-16	11	1%	.	.
COC(=O)c1ccc(C2/C(=C(/O)c3ccc(OC)cc3)C(=O)C(=O)N2CC2CCCO2)cc1 (centres undefined)	14%	-1.0%	8	-26	6%	16%	-1.6
Cc1nn(CC(=O)NCCCN2CCCCC2)c(=O)c2cccn12	-21%	1.4%	5	-4	6%	18%	4.5
O=C(O)Cc1cn(-c2ccccc2)nc1-c1ccccc1	?	.	0	3	-24%	10%	2.2
CC1=C(C(N)=O)C(c2cccs2)NC(=S)N1 (centres undefined)	24%[15.4 µM]	.	6	-1	10%	19%	1.4
CCn1c(CC(=O)Nc2ccc(C)cc2)nnc1SCC(=O)N1CCOCC1	3%	0.5%	8	5	14%	17%	1.8
COc1ccc(-c2c(-c3cccc(C)c3)oc3ccc(-c4ccc5c(c4)OCO5)cc23)cn1	25%	4.1%	-1	.	7%	.	.
CN(C)C(=O)CCc1ccc2c3c([nH]c2c1)[C@]1(CCC2CCCC2)[C@@H](C(=O)N2CCOCC2)C[C@H](CC(=O)NCc2cccc(C(F)(F)F)c2)C(=O)N1CC3	.	1.9%	28	.	-9%	.	.
CCC(C)Sc1nnc(CSc2nc(C)cc(C)n2)n1C (centres undefined)	13%[15.4 µM]	.	-16	?	3%	4%	-2.2
Cc1cc(NC(=O)CCC(=O)N(CC(=O)NC2CCCC2)Cc2ccc3c(c2)OCO3)no1	3%	.	-13	5	-4%	6%	-0.6
NC(=O)CSCc1cccc(Br)c1	-27%	-0.8%	-6	10	-3%	2%	-0.3
CCCOC(=O)C1=C(C)NC2=C(C(=O)CCC2)C1c1ccc(N(C)C)cc1 (centres undefined)	-16%	1.8%	-5	1	3%	17%	-0.7
CNC(=O)C(=O)NCC1OCCN1S(=O)(=O)c1ccc(C)cc1 (centres undefined)	?	1.5%	7	-6	-2%	17%	.
CCn1nnc(-c2ccccc2NC(=O)c2ccc(-n3cnnn3)cc2)n1	-8%	64%	28	7	26%	3%	-0.3
OC(C#CCN1CCCC1)(c1ccccc1)c1cccc(F)c1 (centres undefined)	5%	-1.3%	-1	-12	16%	-3%	-1.1
c1ccc(Nc2ncnc3sccc23)cc1	?	.	11	-17	3%	-5%	-0.2
O=C(Cn1c(=O)oc2cc(S(=O)(=O)N3CCCCC3)ccc21)N1CCCCC1	-15%	-1.0%	-10	-6	-6%	20%	.
CC1(C)CC(=O)C(C=NCC2CCN(C(=O)Nc3ccc(Cl)c(Cl)c3)CC2)=C(O)C1	0%	-26%	-5	0	4%	19%	0.2
Cc1ccc(NC(=O)NC2=NN(c3ccccc3)C(=O)/C2=C2/CCCN2C)cc1	-16%	0.4%	-3	7	-5%	-18%	-3.2
CCC(=O)Nc1cc(-c2nn3c(C)nnc3s2)ccc1C	5%	-12%	-13	3	15%	14%	3.2
CCc1ccccc1NC(=S)N(Cc1ccc(C(=O)O)cc1)Cc1ccc(OC)c(OC)c1	25%	.	15	-7	-6%	-22%	-1.2
O=C(N/N=C/c1ccc(OCC(=O)N2CCOCC2)cc1)c1ccccc1Cl	-8%[15.4 µM]	.	-10	1	2%	11%	0.8
CCOc1ccc(NC(=O)CSc2ccccc2N)cc1	1%[15.4 µM]	.	6	-3	-17%	-8%	5.2
NC(=O)c1snnc1-c1ccccc1	-1%[15.4 µM]	0.0%	7	6	-1%	2%	5.0
CC(OC(=O)c1cc2ccccc2o1)C(=O)Nc1ccc(N2CCOCC2)cc1 (centres undefined)	20%	-1.5%	-5	3	-2%	.	.
CCCCCCCSc1nnc(-c2ccccc2N)c(=O)[nH]1	3%[15.4 µM]	.	3	10	.	16%	?
O=C(NCCN1C(=O)S/C(=C/c2cccnc2)C1=O)c1cccs1	0%	-2.8%	-5	9	-36%	.	.
Cc1nc2ccc(NC(=O)N(C(C)C)C(C)C)cc2s1	-45%[inhibitor]	-4.1%	0	-1	2%	-9%	-1.3
Cc1cccc(C(=O)N2CCN(S(=O)(=O)c3ccc4c(c3)OCCCO4)CC2)c1[N+](=O)[O-]	-4%	0.6%	0	0	-15%	19%	.
C[C@]12c3[nH]c4ccc(Cl)cc4c3CCN1C(=O)[C@@H](CC(=O)NCCC1=CCCCC1)C[C@@H]2C(=O)N1CCCCC1	.	2.2%	10	.	4%	.	.
CCOCCCNC(=O)C1(O)c2cc(Br)ccc2NC(=O)N1c1ccc(C)c(C)c1 (centres undefined)	1%	0.2%	7	-1	-4%	-3%	-1.2
COc1ccc(CC(=O)N2CCN(C(=O)Cc3ccc(OC)cc3)CC2)cc1	-14%	-5.3%	-9	0	-14%	26%	1.0
CCCOc1ccc(CNC(=O)CCC(=O)n2ncc3cc(C)ccc32)cc1	?	0.6%	7	-3	-6%	-16%	-0.3
Cc1nn(-c2ccccc2)c(C)c1C(=O)NCCc1ccccc1	-3%	.	-1	-4	3%	7%	-0.1
CCOc1ccc(N2C(=O)CC(Sc3nc(C)cc(C)n3)C2=O)cc1 (centres undefined)	0%	-0.2%	19	8	4%	7%	-2.4
COc1ccc(CN(C)C(=O)c2ccc3ccccc3n2)cc1F	22%	.	-4	-6	6%	0%	.
CN(C(=O)c1cccc(NC(=O)Cc2cccc(NC(=O)C3CCCN(C(=O)C4CCCC4)C3)c2)c1)C1CCC1 (centres undefined)	.	1.4%	0	.	-22%	.	.
CNC(=S)Nc1ccc(N2CCN(c3ccc(C(F)(F)F)cn3)CC2)nc1	?	.	-14	-3	1%	-1%	0.9
NC(=O)C1CN(S(=O)(=O)c2ccc(Cl)cc2F)c2ccccc2O1 (centres undefined)	22%	0.1%	-5	?	-6%	11%	-10
Cc1ccc(-n2c(=O)c3c(n4cnnc24)-c2ccccc2CC32CCCCC2)cc1	-6%[15.4 µM]	0.6%	5	-6	-27%	12%	6.3
CCOC(=O)CCc1c(C)nc2cc(C3CCCN(C(=O)OC(C)(C)C)C3)[nH]n2c1=O (centres undefined)	-56%[inhibitor]	?	11	7	-7%	14%	-3.2
COc1cscc1C(N)=O	0%	-11%	-3	-11	10%	16%	0.8

Other results
SMILES	gsp ag	ClpP mod	TRPML1 blocker	TRPV1 PAM	gsp antagonist	Sfp PPTase inh	Menin-MLL FL inh
COc1ccc(-c2cn3cc(Cl)ccc3n2)cc1OC	-1%	?	-15	-6	-16%	-11%	1.3
O=C(O)c1ccc(CSCc2c(F)cccc2Cl)o1	9%	0.9%	2	2	-7%	3%	-0.7
CSc1ncccc1C(=O)OCc1ccccc1	-87%[inhibitor]	-4.3%	-3	?	-8%	-4%	0.4
Cc1cccnc1NC1(C(F)(F)F)N=C(c2ccccc2)NC1=O (centres undefined)	30%	0.5%	6	4	-19%	25%	0.4
CCC(C)NS(=O)(=O)c1ccc(S(=O)(=O)N(CCc2ccc(OC)c(OC)c2)Cc2cccs2)cc1 (centres undefined)	-17%	1.0%	8	10	-11%	17%	5.3
CCCS(=O)(=O)N1CCCC(C(=O)NCCCOCC)C1 (centres undefined)	-14%	-2.4%	-10	-3	-1%	5%	1.2
CCOC(=O)c1c(-c2ccccc2)csc1NC(=O)c1cc(S(=O)(=O)N2CCOCC2)ccc1C	-42%	?	78	-2	-2%	?	1.0

Compound activity from PubChem.
